Screens: PubChem, National Center for Advancing Translational Sciences (NCATS)
Vaccinia Venus – vaccinia inhibition (Venus reporter). Vaccinia virus Venus reporter expression, fluorescence. Potency, µM (top dose mostly 36.5 µM), for inactives: top-dose activity change, negative = inhibition, hits mostly inhibitors. 330,000 compounds, 0.46% hits. AID 720580; active means well fitted inhibition curve with a large enough effect; inconclusive means small, poorly fitted or top-dose-only effect; inactive means no such curve, though single readings can be large or run the other way; tested in A549 cells; further: nearly all actives have a fitted effect of over 30% in size; inactives centre near -10
VACV mCherry inh – vaccinia inhibition (mCherry reporter) | Vaccinia virus mCherry reporter infection, fluorescence; about a quarter of the inactives have no number | Potency, µM (highest dose often 36.5 µM), for inactives: top-dose activity change, negative = inhibition, hits mostly inhibitors | 310,000 compounds, 0.63% hits; active = well fitted inhibition curve with a large enough effect; inconclusive = small, poorly fitted or top-dose-only effect; inactive = no such curve, though single readings can be large or run the other way; tested in A549 cells; further: nearly all actives have a fitted effect of over 35% in size; inactives centre near -10
Starred values were filed as active, the others as inactive; i = inactive; ? = inconclusive; / = not tested or not shown; & = joins results of further samples; [ ] = remark or other dose. On the % scale 0 is the no-effect control and ±100 the full control effect; potency means the concentration at half of the fitted maximal effect.

SMILES | Vaccinia Venus | VACV mCherry inh
COCCOC(=O)c1c(C)oc2ccc(OCc3cc(C(=O)OC)oc3C)cc12 | -6% | i
C=C(C(=O)Oc1c(C(C)(C)C)cccc1C(C)(C)C)c1ccccc1 | 12% | ?
Cc1ccc(N2C(=O)C(F)(F)C2c2ccccc2)cc1 (stereo not drawn) | -6% | i
COc1ccc(C(=O)NNC(=O)C23CC4CC(CC(C4)C2)C3)c(OC)c1 | -8% | -8%
O=C(Nc1cccc2ccccc12)c1ccccc1 | 0% | -20%
COc1ccc(CNC(=O)CN2C(=O)c3cccnc3Oc3ccc(C)cc32)cc1 | -2% | -11%
COc1ccc2[nH]c(=O)c(CN(C(=O)c3cccnc3)c3cccc(C)c3)cc2c1 | -7% | -14%
CC(=O)c1cccc(OCC(=O)Nc2cc(Cl)ccc2-n2cncn2)c1 | -5% | -13%
Cc1nc2c(-c3ccc(F)cc3)c(C)nn2c(C)c1CCC(=O)NCCN1CCOCC1 | -11% | 16%
COC(=O)C[C@H]1C[C@H]2c3cc(NC(=O)NC4CCCC4)ccc3O[C@H]2[C@@H](CO)O1 | -14% | i
O=C(CNc1ccc(Oc2ccccc2)cc1)N1CCOCC1 | -24% | /
CC(C)CNS(=O)(=O)c1ccc(C(=O)Nc2ccc3c(c2)OCCO3)cc1 | -25% | i
CN(c1c(C#N)c(C(F)(F)F)nn1C)N(S(C)(=O)=O)S(C)(=O)=O | -8% | i
Cc1cc(NC(=O)c2cccc(Cl)c2)ccc1-c1cc2ccccc2oc1=O | -26% | -29%
Cc1ccc(NC(=O)C2CCN(c3nnc(C)c4c(C)n(-c5ccccc5)nc34)CC2)c(Cl)c1 | -12% | -17%
CNC(=O)COC(=O)c1ccc([N+](=O)[O-])cc1Cl | -2% | i
CC(=O)N[C@@H](CS)C(=O)O | -12% | i
O=C(CNC(=O)OCc1ccccc1)NCC(=O)Nc1ccc(Br)cc1C(=O)c1ccccc1 | -11% | -5%
CC(=O)NC1C(=O)N(CCc2ccccc2)c2ccccc21 (stereo not drawn) | -8% | i
O=C(CS(=O)(=O)Cc1ccccc1)N1CCc2ccccc2C1 | -16% | -23%
COc1ccc(OC)c(/C=N/NC(=O)C(O)c2ccccc2)c1 (stereo not drawn) | -11% | -14%
Cc1ccc2nc(-c3cccnc3)cc(C(=O)N3CCN(c4ccc([N+](=O)[O-])cc4)CC3)c2c1 | -4% | -2%
C#CCNC(=O)C1=C[C@H](c2ccc(C(F)(F)F)cc2)[C@@H](CCCO)[C@H](OCC)O1 | -13% | i
CCOc1ccccc1-n1nnc(-c2nc(-c3ccccc3)no2)c1N | -13%[7.34 µM] | -12%[7.34 µM]
Cc1noc(C)c1COC(=O)CCCc1nc2ccccc2s1 | -5% | -8%
Going on with the list.
SMILES | Vaccinia Venus | VACV mCherry inh
CC(C)CN(C(=O)COC(=O)CSc1ccccc1)c1c(N)n(Cc2ccccc2)c(=O)[nH]c1=O | -13% | i
CC1=C(C(=O)Nc2ccccc2)C(c2ccccn2)n2ncnc2N1 (stereo not drawn) | 2% | -10%
O=C(CSc1nc2ccccc2c(=O)[nH]1)c1ccc(O)c(O)c1 | -16% | -23%
CCOC(=O)c1ccc(NC(=O)C2C3C=CC(C3)C2C(=O)O)cc1 (stereo not drawn) | -10% | /
CCO[C@@H]1OC(C(=O)N2CCOCC2)=C[C@H](C(C)(C)C)[C@H]1CCCO | -12% | i
Cc1ccc(S(=O)(=O)NN=C2CC(C)(C)CC(=O)C2(C)C)cc1 | -18% | i
COc1ccc(N2CCN(C(=O)c3ccc4c(c3)CCN4S(C)(=O)=O)CC2)cc1 | -7%&-26% | -18%&-25%
COc1ccc(C(CCN2CCCC2)c2c(O)cc(OC)cc2OC)cc1 (stereo not drawn) | -16% | -21%
CCN(CC(=O)NCc1ccc(Cl)cc1)C(=O)CSCC(=O)Nc1ccc(OC)cc1 | -15% | -20%
COC(=O)[C@]12CCCCC=C1N(CCc1ccc(OC)c(OC)c1)C(=O)[C@H](CC(=O)N1CCOCC1)C2 | -9% | 1%
COc1ccc(N2C(=O)CC(N3CCN(c4ccc(S(=O)(=O)N5CCCC5)cc4)CC3)C2=O)cc1 (stereo not drawn) | -9% | /
CCCc1ccc(C(=O)NNc2cc(Cl)ccc2Cl)cc1 | -15% | i
COc1ccc(/C=N/NC(=O)c2nc(Cl)c(Cl)c(N)c2Cl)cc1COc1ccccc1F | ? | /
CCOc1cc(CNc2cccc3[nH]c(C)nc23)ccc1OC | -15% | ?
CCOC(=O)CNC(=S)N(Cc1ccc(C)cc1)Cc1ccc(C)o1 | -10% | -16%
COc1ccc(-c2cc3nc(-c4ccccc4)cc(N4CCCC(O)C4)n3n2)cc1 (stereo not drawn) | ? | 13µM*
Cc1cc([N+](=O)[O-])ccc1NC(=O)CSc1nccn1C | -9% | -17%
C/C(=C/CCC(C)[C@H]1CC[C@@]2(C)C3=C(CC[C@]12C)[C@@]1(C)CCC(=O)C(C)(C)[C@@H]1CC3)C(=O)O (stereo partly drawn) | -10% | -4%
CCc1sc(C(=O)Nc2nccs2)cc1C | -9% | -8%
COc1ccc(Br)c(C(=O)Nc2ccc(F)cc2)c1 | -10% | i
CCCCn1c(SCC(=O)c2ccc(OCC)cc2)nc2cc(S(N)(=O)=O)ccc21 | -15% | /
O=C(NCCN1CCOCC1)c1c[nH]c2ccc(S(=O)(=O)N3CCOCC3)cc2c1=O | -13% | -16%
Cc1cc(C(=O)N/N=C/c2ccc(-c3ccc([N+](=O)[O-])cc3Cl)o2)n[nH]1 | -3%[7.34 µM] | -13%[7.34 µM]
CCOc1cc2[nH]c(=O)n(CCC(=O)N3CCN(c4ccccc4)CC3)c(=O)c2cc1OCC | -5% | -14%
O=C(CCNS(=O)(=O)c1ccc(Br)cc1)NC1CCCCC1 | -12% | -1%

Six compounds already listed, sorted by SMILES length, low to high.
SMILES | Vaccinia Venus | VACV mCherry inh
Cc1ccc(N2C(=O)C(F)(F)C2c2ccccc2)cc1 (stereo not drawn) | -6% | i
CC(=O)NC1C(=O)N(CCc2ccccc2)c2ccccc21 (stereo not drawn) | -8% | i
CC1=C(C(=O)Nc2ccccc2)C(c2ccccn2)n2ncnc2N1 (stereo not drawn) | 2% | -10%
Cc1cc(NC(=O)c2cccc(Cl)c2)ccc1-c1cc2ccccc2oc1=O | -26% | -29%
CCCCn1c(SCC(=O)c2ccc(OCC)cc2)nc2cc(S(N)(=O)=O)ccc21 | -15% | /
COC(=O)C[C@H]1C[C@H]2c3cc(NC(=O)NC4CCCC4)ccc3O[C@H]2[C@@H](CO)O1 | -14% | i

(list continues)
SMILES | Vaccinia Venus | VACV mCherry inh
FC(F)(F)c1ccc(C2[C@H]3CN(Cc4cccnc4)[C@H](c4ccccc4)C34CC2(c2ccccc2)C4)cc1 (stereo partly drawn) | 9% | ?
Cn1c(=O)[nH]c(=O)c2c1nc(N1CCNCC1)n2CCOc1ccccc1 | -16% | /
COCCCNC(=O)N1[C@H](c2cccs2)[C@@H](C)C(=O)[C@@H](C)[C@@H]1c1cccs1 | -13% | -9%
COc1ccc(-c2noc(-c3ccc(NCc4ccco4)c([N+](=O)[O-])c3)n2)cc1 | -5% | -2%
CC(C)(c1ccccc1)c1ccc(OCCCN2CCNCC2)cc1 | 0% | -18%
COc1ccc(C(=O)c2c3ccc([N+](=O)[O-])cc3[n+]([O-])n2CCCN)cc1 | 10µM* | ?
CSCCC(C(=O)NC1CCCC1)n1c(-c2ccncc2)nc2ccccc21 (stereo not drawn) | 0% | 17%
CCc1ccc(NC(=O)CS(=O)CC(=O)NC(C)CCc2ccco2)cc1 (stereo not drawn) | -10% | -20%
Cc1cccc(OCc2nnc(SC(C)C(=O)O)n2Cc2ccccc2)c1 (stereo not drawn) | -1% | i
CC(Sc1ccc(Cl)cc1)C(=O)Nc1ccccc1C(=O)N1CCOCC1 (stereo not drawn) | ? | /
Cc1ccccc1CC(=O)N1CCCC(CCC(=O)N2CCN(c3ccccn3)CC2)C1 (stereo not drawn) | -6% | -19%
CCCCC[C@H](O)/C=C/[C@@H]1[C@@H](C/C=C\CCCC(=O)O)[C@@H](O)C[C@H]1O | -13% | i
Cc1ccc2nc(C)cc(N/N=C/c3cccnc3)c2c1 | -10% | -15%
COc1cc(OC)c(C(=O)OCC(=O)c2cc(C)n(CC3CCCO3)c2C)cc1OC (stereo not drawn) | -4% | 2%
Cc1cc(NC(=O)c2ccc(Cl)cc2)no1 | -8% | -6%
O=C(CCN1CCN(c2ccccc2)CC1)Nc1nccs1 | 0% | -3%
CCc1ccc2[nH]c(=O)c(CN(Cc3cccnc3)Cc3nnnn3Cc3ccccc3)cc2c1 | -24% | -5%
CCOc1ccc(-c2cc(C(=O)N3CCN(C)CC3)c3ccccc3n2)cc1 | -3% | -8%
COc1ccc(-c2nc(SCC(=O)Nc3c(C)cc(C)cc3C)n[nH]2)cc1 | -23% | -24%
CCS(=O)(=O)N1CCN(c2c(Cl)cccc2[N+](=O)[O-])CC1 | -11% | -14%
CCOC(=O)[C@@H]1[C@H]2COc3cc(OC)ccc3[C@@H]2N2C(=O)N(c3ccc(C)cc3)C(=O)[C@@]12C | -16% | ?
COc1ccc(Br)cc1CN1CCCCCCC1 | 0% | -6%
O=C(CC1SC(=Nc2ccccc2)N(CCc2c[nH]c3ccccc23)C1=O)Nc1ccccc1F (stereo not drawn) | -30% | -15%
CC(=O)Nc1nc2n(n1)C(c1ccc(F)cc1)C=C(c1ccc(Cl)cc1)N2 (stereo not drawn) | -9% | -17%
Cc1ccc(S(=O)(=O)CCc2nc3ccccc3n2CCC#N)cc1 | -21% | -24%
Additional compounds follow:
SMILES | Vaccinia Venus | VACV mCherry inh
CCOC(=O)CNC(=O)c1ccccc1 | -15% | -17%
Cc1ccc(S(=O)(=O)c2ccc([N+](=O)[O-])o2)cc1 | ? | ?
COC(=O)CN(C)C(=O)c1ccc(OC2CCN(S(=O)(=O)N(C)C)CC2)cc1 | -17% | i
CCCC(C(=O)NC1CCCC1)N(C(=O)c1snc(C(N)=O)c1N)c1ccc(F)cc1 (stereo not drawn) | -10% | -14%
CC1CCCN(C(=O)CSc2nnc(-c3ccc(S(=O)(=O)N4CCOCC4)cc3)n2C)C1 (stereo not drawn) | -1% | -13%
O=C(C1CCCCC1)N(Cc1cccnc1)c1nc2c(F)cc(F)cc2s1 | 1% | -7%
Cc1ccc(-c2c3c(=O)n(C)c(=O)n(C)c3c3cnc4ccccc4n23)cc1 | -8%[7.34 µM] | -17%[7.34 µM]
CCN(CC)S(=O)(=O)c1ccc(S(=O)(=O)NCc2cccs2)cc1 | -8% | -12%
Cc1ccc(C(=O)N2CCC3(CC2)Oc2ccc(F)cc2C(=O)C32CC(c3ccccc3)=NO2)s1 (stereo not drawn) | -20% | i
CC(C)CCNC(=O)C(CC(C)C)N(Cc1ccc2c(c1)OCO2)C(=O)c1snc(C(N)=O)c1N (stereo not drawn) | -9% | -8%
CCC(C)(C)NC(=O)CN(C(=O)c1snc(C(N)=O)c1N)c1ccc2c(c1)OCO2 | -5% | i
COc1ccc(OC)c(/C=N/NC(=O)CSc2cc(C)nc3c(OC)cccc23)c1 | -28% | -13%
COc1ccc(-c2cc(C(=O)OCC(=O)c3cccc([N+](=O)[O-])c3)c3cc(C)ccc3n2)cc1 | -7% | -5%
Cc1ccc(C(=O)Nc2ccc(C(=O)O)cc2)cc1S(=O)(=O)N1CCC(C)CC1 | -4% | 0%
COc1ccc(S(=O)(=O)NCC2CCCO2)cc1NC(=O)c1ccccc1F (stereo not drawn) | -9% | -3%
Cc1cc(NC(=O)C(C)SCC(=O)Nc2cc(C(F)(F)F)ccc2N2CCOCC2)no1 (stereo not drawn) | -7% | i
CC(O)CNCCCOc1cccc(C(F)(F)F)c1 (stereo not drawn) | 5% | -4%
COc1ccc(C(=O)c2ccc(N(C)C)cc2)c2ccccc12 | ? | ?
Cn1nc(C2CC2)cc1NC(=O)C1(C)CCN1C(=O)Cc1ccc(-c2ccccc2)cc1 (stereo not drawn) | -26% | ?
CCC/C=C1/CCCOC(C(=O)NCc2ccccn2)(C(F)(F)F)C1 (stereo not drawn) | 15% | -24%
Cc1nn(C)cc1/C=N/NC(=O)Cn1nccc1C | -19% | -21%
O=S(=O)(NCc1csc(-c2ccccc2)n1)c1ccccc1 | -14% | -18%
O=C(CSc1nnc(CN2CCCCC2)n1-c1ccccc1)c1ccc2c(c1)OCO2 | -16% | -8%
N[C@H](CO)Cc1ccccc1 | -4% | i
C=CCOc1c(Br)cc(/C=N/NC(N)=O)cc1OC | -15% | -5%

Overlap with the part before: 3 entries; new compounds follow.
SMILES | Vaccinia Venus | VACV mCherry inh
O=C(CSc1nnc(CN2CCCCC2)n1-c1ccccc1)c1ccc2c(c1)OCO2 | -16% | -8%
N[C@H](CO)Cc1ccccc1 | -4% | i
C=CCOc1c(Br)cc(/C=N/NC(N)=O)cc1OC | -15% | -5%
Cc1ccc(C(=O)Nc2ccc(Br)cc2)cc1S(=O)(=O)NCc1ccccc1 | ? | ?
C/C(=C\c1ccccc1)CN1CCN(c2ccccc2)CC1 | -8% | -12%
CN1CCN(c2cc(N3CCc4ccccc4C3)c(F)cc2[N+](=O)[O-])CC1 | ? | 10µM*
Cc1nc(/C=[N+](\[O-])C(C)(C)/C=N/O)n(O)c1C | -4% | /
C#CCNC(=O)C1=C[C@@H](c2coc3ccccc3c2=O)C[C@@H](OCc2ccc(CO)cc2)O1 | -1% | 2%
COc1ccc(C2Nc3ccccc3C(=O)N2c2ccccc2)cc1Cn1cc([N+](=O)[O-])cn1 (stereo not drawn) | -7% | -12%
Nc1ccc2cc3[nH]c4cc(N)ccc4c3nc2c1 | -25% | ?
